# Compound activity (PubChem BioAssay)
# Ecoli rRNA inh: reduced GFP signal of wild-type E. coli, primary screen, bacterial rRNA inhibitor project, GFP/RFP fluorescence, OD600, single point | AID 720706, 2013 | 1.6% of 350,000 active | GFP signal change (wild-type ribosome), % (test concentration not listed) | E. coli WT GFP vs humanized-ribosome RFP mutants, 24 h; hits give low values; DMSO median 0, no signal -100;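 active = significant combined selectivity score with lowered wild-type GFP, culture density cut under 30%, mutant RFP and density less affected; inactive = any of these conditions unmet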; also: one replicate is shown; some compounds called inactive have numbers as strong as hits
# Beta cell apopt: inhibitors of cytokine-induced beta cell apoptosis, primary screen, luminescence; 0.8% of 300,000 active; INS-1E cytokine-induced death, ATP luminescence, 48 h; percent of positive-control rescue, neutral wells zero; AID 435005, 2010; protection from apoptosis, % (concentration not given with the values);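 active = all replicates at 75% or more, or half of them and the mean; inconclusive = half reach 75% but not the mean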;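 also: 0% = cytokine-treated negative control wells and 100% = positive control rescue; higher means more ATP so stronger rescue from cytokine killing; wells of about 40 µL received 100 nL stock; the first replicate is given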
# Calb FLC: C. albicans growth inhibition with fluconazole, primary screen, CaCi-2 strain, Alamar Blue fluorescence | C. albicans CaCi-2 (fluconazole-resistant clinical isolate) + fluconazole, 48 h | growth inhibition, % (no concentration beside the values) | 0.57% of 300,000 active | AID 1979, 2009;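 active = most replicates above 75%; inconclusive = exactly half above 75%; inactive = most below 75%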;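 also: all wells also contain fluconazole at 8 µg/ml as a sub-toxic cotreatment; 0% = median of DMSO wells and 100% = median of geldanamycin control wells; wells of about 8 µL received 7.5 nL stock; the first replicate is given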
# RanGTP-Impb inh: inhibitors of RanGTP-importin-beta interaction, primary screen, biochemical, FRET, CFP-Ran, YFP-importin-beta, homogeneous | cell-free CFP-Ran/YFP-importin-beta FRET ratio | inhibition, % (test concentration not listed) | 1.1% of 300,000 active | AID 2216, 2009;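 active = most replicates above 15%; inconclusive = exactly half above 15%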;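 also: 0% = DMSO wells and 100% = Ran loaded with GDP instead of GTP; wells of about 40 µL received 100 nL stock; the first replicate is given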
# FGF22 binding: binders of human FGF22 protein, primary screen, FGF22 synaptogenesis inhibitor project, biophysical, thermal shift, single point; recombinant FGF22 thermal shift, SYPRO orange fluorescence; percent of sucrose octasulfate shift, DMSO zero; calls only at 9.99 µM; 1.5% of 340,000 active; AID 651658, 2012;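 active = melting point raised past a set limit in the mean and every replicate; inconclusive = no clear call; three in four hits are not shown here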
# Target sequence (Q9HCT0 whole entry, looked up): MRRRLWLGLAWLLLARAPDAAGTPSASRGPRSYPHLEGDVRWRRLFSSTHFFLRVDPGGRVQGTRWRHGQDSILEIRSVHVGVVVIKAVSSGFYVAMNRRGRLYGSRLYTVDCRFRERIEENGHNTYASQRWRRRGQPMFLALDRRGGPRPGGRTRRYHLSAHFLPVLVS
# AF4-AF9 inh: inhibitors of AF4 peptide binding to AF9, primary screen, biochemical, AlphaScreen, biotin-AF4 peptide, FLAG-AF9, single point; Protein AF-9 (Homo sapiens), P42568; inhibition, % at 10 µM; 0.47% of 350,000 active;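 active = every replicate reaching a set inhibition limit, whatever the replicate mean, cut at about 25% in these data; inconclusive = mean inhibition reaches that limit but some replicates miss it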;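 also: 0% = plate neutral control median and 100% = total signal loss; the record names both 10 and 1 µM as test concentration; the first replicate is given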
# Target sequence (P42568 whole entry, looked up): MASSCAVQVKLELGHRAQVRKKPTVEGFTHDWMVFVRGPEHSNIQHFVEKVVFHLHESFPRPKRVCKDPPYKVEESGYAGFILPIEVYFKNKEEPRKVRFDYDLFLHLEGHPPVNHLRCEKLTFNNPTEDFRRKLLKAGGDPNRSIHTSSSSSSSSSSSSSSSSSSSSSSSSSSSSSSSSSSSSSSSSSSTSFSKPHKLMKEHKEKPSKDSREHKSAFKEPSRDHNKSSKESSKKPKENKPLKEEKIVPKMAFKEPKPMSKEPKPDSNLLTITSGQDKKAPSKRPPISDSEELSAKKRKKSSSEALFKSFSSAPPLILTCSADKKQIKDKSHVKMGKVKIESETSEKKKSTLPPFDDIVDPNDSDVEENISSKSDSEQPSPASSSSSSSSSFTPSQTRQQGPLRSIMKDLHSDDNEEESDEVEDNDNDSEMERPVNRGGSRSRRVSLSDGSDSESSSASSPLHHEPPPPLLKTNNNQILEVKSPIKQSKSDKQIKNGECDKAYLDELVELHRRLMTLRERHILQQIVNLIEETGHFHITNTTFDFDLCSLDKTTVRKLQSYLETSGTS
# T cruzi repl: inhibitors of intracellular T. cruzi growth, primary screen, luminescence, NIH3T3 host cells | T. cruzi beta-gal in NIH3T3, 90 h | inhibition, % (no concentration beside the values) | 1.4% of 300,000 active;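 active = mean inhibition across valid replicates above about 55%, limit read from the data; inconclusive = mean below that limit but half or more replicates reach it; inactive = mean below it, under half of replicates reach it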;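 also: signal also drops with host cell toxicity which is not excluded here; 0% = plate median of DMSO wells and 100% = zero luminescence signal; higher percent means less beta-gal luminescence so fewer parasites; stock transfer was 50 nL into about 50 µL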
# ALR inh: inhibitors of human ALR sulfhydryl oxidase, primary screen, biochemical, H2O2 detection, HRP-luminol luminescence, single point. FAD-linked sulfhydryl oxidase ALR (Homo sapiens), P55789. purified ALR, DTT oxidation. inhibition, % (concentration not given with the values). 3.8% of 290,000 active. AID 485317, 2010;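 active = mean and each replicate at 75% or more; inconclusive = only one of the two met; inactive = neither met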;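 also: stock transfer was 7.5 nL into about 7.5 µL; 0% = neutral wells and 100% = wells with inactivated enzyme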
# Target sequence (P55789 whole entry, looked up): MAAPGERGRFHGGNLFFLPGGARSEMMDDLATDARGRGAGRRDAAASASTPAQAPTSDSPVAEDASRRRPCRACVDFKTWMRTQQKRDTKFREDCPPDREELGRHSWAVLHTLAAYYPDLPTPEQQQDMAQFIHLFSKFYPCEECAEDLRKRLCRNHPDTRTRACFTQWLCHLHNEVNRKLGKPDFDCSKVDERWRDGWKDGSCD
# Ecoli rRNA inh OD600: further read-out of Ecoli rRNA inh, marked with its call; OD600 change, %; measured here: OD600 growth;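 optical density of the mix in the first replicate; 0 = DMSO median and -100 = no signal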
# Ecoli rRNA inh RFP: recorded beside Ecoli rRNA inh, whose call it bears; RFP signal change, %; measured here: RFP humanized mutant strains;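 first replicate; 0 = DMSO median and -100 = no signal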
# An asterisk follows results filed as active; i = inactive; ? = inconclusive; / = not tested or not shown; + = active, no number. Only part of the results is shown. The share of hits here may be higher or lower than overall.
SMILES,Ecoli rRNA inh,Ecoli rRNA inh OD600,Ecoli rRNA inh RFP,Beta cell apopt,Calb FLC,RanGTP-Impb inh,FGF22 binding,AF4-AF9 inh,T cruzi repl,ALR inh
Cc1nc2oc3ccccc3c(=O)c2c(=O)n1Cc1ccccc1,/,/,/,-5,?,-1.6,/,/,-11,-14
CCOC(CNC(=O)c1ccc2c(c1)nc(C)n2-c1cccc(F)c1)OCC,-2,-1,-0.1,-3,?,6.9,i,2.1,-2,-15
CC(=O)Nc1ccc(S(=O)(=O)N(C)CC(=O)OCC(=O)NC(C)C23CC4CC(CC(C4)C2)C3)cc1 (centres undefined),/,/,/,/,-2,3.1,/,/,-5,-6
CNC(=O)c1ccc(-n2cccn2)nc1,13,20,0.4,/,3,?,i,-1.1,-28,-5
CCOC(=O)/C=C(C)\C=C\c1c[nH]c2ccccc12,-7,3,2.0,-1,0,1.8,i,7.4,36,/
CCN(CC)S(=O)(=O)c1ccc(N2CCOCC2)c(NC(=O)COc2ccc(OC)cc2)c1,/,/,/,-1,/,/,i,-0.9,/,1
COc1ccc2c(CC(=O)NC(Cc3ccc(Cl)cc3)C(=O)O)cc(=O)oc2c1C (centres undefined),2,3,0.4,2,9,4.2,i,-22,-7,25
COc1ccc(CCNC(=O)CN(c2ccccc2OC)S(=O)(=O)c2ccc(C)cc2)cc1,-6,-8,0.7,/,-7,-2.0,i,-6.9,60*,-2
CC(NC(=O)CCC(=O)Nc1ccccc1O)c1ccccc1 (centres undefined),13,6,-0.2,/,-30,2.3,i,0.8,-7,30
CCOC(=O)[C@@H]1[C@H]2COc3ccc(Br)cc3[C@H]2N2C(=O)N(c3ccc(C)cc3)C(=O)[C@]12C,9,4,-1.8,2,10,1.1,i,5.2,-13,-4
COc1ccc2ccccc2c1/C=N/NC(=O)c1cccc([N+](=O)[O-])c1,13,20,0.4,-10,-2,6.2,i,-0.4,2,-10
O=C(O)c1cnn2c(C(F)(F)F)cc(-c3ccco3)nc12,13,5,13,0,5,-2.6,/,/,-7,-8
CCCN(CCC)CC(O)COc1ccc([N+](=O)[O-])cc1 (centres undefined),/,/,/,2,2,-0.1,/,/,1,-14
CN(C1CCCCC1)S(=O)(=O)c1ccc2c(c1)c(=O)c(C(=O)NCCCN1CCCC1)cn2C,5,9,3.5,3,-8,3.0,i,4.7,0,-19
Cc1cccn2c(=O)c3cc(C(=O)NCCN4CCOCC4)c(=N)n(CCCN4CCOCC4)c3nc12,7,7,0.4,2,-27,131*,i,-2.3,-5,5
C/C=C(\C)C(=O)Nc1cccc(C2=NOC3(C2)C[C@H](C(N)=O)N(C(=O)c2cc([N+](=O)[O-])cc([N+](=O)[O-])c2)C3)c1 (some centres undefined),9,10,-0.1,-1,2,-3.2,i,3.8,-2,-59
COc1cc(C2Nc3cccc4cccc(c34)N2)cc(OC)c1OC(C)=O,/,/,/,-2,-8,-0.8,/,/,1,-9
COc1ccc(CC(=O)Nc2ccc(-c3ccc4nnc(C)n4n3)cc2)cc1OC,-2,1,3.6,-11,1,-0.5,i,-1.0,19,-4
COc1ccc(OC)c(-n2c(SCC(=O)Nc3cccc(S(N)(=O)=O)c3)nc3ccccc3c2=O)c1,-4,-3,-2.8,-6,-3,3.7,i,5.3,9,-13
N#CCOc1nc(N2CCCCC2)nc(N2CCCCC2)n1,-19,-37,-2.1,2,-8,-0.6,i,-0.3,20,-2
O=C(O)/C(=C\c1ccccc1OC(F)F)Sc1nnc(-c2ccc(F)cc2)o1,-24,-26,2.0,16,-25,-2.7,i,1.2,3,2
COCCCNC(=S)N/N=C/c1cccc(OC)c1O,/,/,/,88*,3,3.3,i,0.0,/,40
CCc1ccc(NS(=O)(=O)c2ccc3oc(=O)ccc3c2)cc1,-27,-27,-4.2,/,-14,-2.5,i,0.8,8,-16
COC(=O)c1ccccc1NS(=O)(=O)c1ccc(Cl)nc1,-6,-6,0.7,-1,37,1.7,i,-0.1,-9,-5
Cc1ccc(-n2c(SCC(=O)N3CCCCC3)nc(O)cc2=O)cc1,3,3,2.0,/,0,2.8,i,3.9,-11,10

# Individual results from above:
# `COc1ccc2ccccc2c1/C=N/NC(=O)c1cccc([N+](=O)[O-])c1` | Beta cell apopt: -10
# `Cc1nc2oc3ccccc3c(=O)c2c(=O)n1Cc1ccccc1` | T cruzi repl: -11

# (further entries)
SMILES,Ecoli rRNA inh,Ecoli rRNA inh OD600,Ecoli rRNA inh RFP,Beta cell apopt,Calb FLC,RanGTP-Impb inh,FGF22 binding,AF4-AF9 inh,T cruzi repl,ALR inh
CCOC(=O)c1c(Cc2ccc(Cl)cc2)c[nH]c1C,-1,2,6.3,-9,-36,-3.6,i,1.6,16,-1
N#Cc1c(-c2ccccc2)cc(-c2ccccc2)nc1SCC(=O)NCC(=O)O,-7,-13,2.9,-16,26,1.9,/,1.8,2,/
COc1ccccc1N1CCN(C2=Nc3cccc4cccc2c34)CC1,-51,-72,-17,28,0,-6.5,i,30*,52,4
COc1ccc(NC(=O)C2CC(c3cc(OC)c(OC)c(OC)c3)=NO2)cc1OC (centres undefined),/,/,/,-2,29,6.1,/,/,12,0
CCOC(=O)c1nnc(-c2ccccc2)[nH]c1=O,5,-4,-1.8,-12,2,-1.7,/,-2.4,-9,2
Cc1ccccc1Nc1nnc(SCc2nc3ccccc3c(=O)[nH]2)s1,/,/,/,7,-7,2.5,/,/,-6,3
CC1Cc2ccccc2N1Cc1cccc([N+](=O)[O-])c1 (centres undefined),/,/,/,-5,0,-4.2,/,/,10,58
CCOc1ccccc1N1CCN(C(=S)NCc2ccc(Cl)cc2)CC1,-30,-45,15,4,13,0.8,i,1.3,36,10
Cc1cc(CNCc2c(C(=O)N3CCCCCCC3)nc3ccc(Cl)cn23)nn1C,1,3,-1.7,-2,7,1.2,/,1.3,3,/
O=C(O)c1cc(O)ccc1-c1ccc(O)cc1,/,/,/,-2,2,-0.3,/,/,10,98*
O=C(O)C1CCCCC1C(=O)Nc1ccccn1 (centres undefined),/,/,/,0,-7,-0.1,/,/,-11,-3
CC1CCN(CC(O)COCCC23CC4CC(CC(C4)C2)C3)CC1 (centres undefined),-40*,-13*,-1.1*,14,19,3.6,i,7.9,61*,-4
CCOC(=O)c1[nH]c2ccc(OC)cc2c1NC(=O)CN1CCc2ccccc2C1,/,/,/,7,2,-1.6,/,/,20,10
CCC(=O)NCCc1c[nH]c2ccccc12,/,/,/,0,8,0.6,/,/,-3,29
Clc1ccc(Cl)c(OCc2cc(-c3ccccc3Cl)on2)c1,/,/,/,3,16,-0.6,/,/,1,-14
CCOc1ccc(CC(=O)NCc2cn3c(C)csc3n2)cc1,-2,-1,9.7,-1,-3,-3.7,i,-2.1,-3,16
COc1ccc(C2/C=C\CN(C(=O)C3CCCC3)[C@H](Cc3ccccc3)C(=O)N2Cc2ccc(F)cc2)cc1 (some centres undefined),4,7,-1.6,11,26,2.0,i,1.1,32,5
CCOc1nc(OCC)nc(N2CCC(C)CC2)n1,/,/,/,-10,5,3.0,/,/,7,-4
COc1ccc(CC(=O)NNS(=O)(=O)c2cccc([N+](=O)[O-])c2)cc1OC,-7,6,-2.3,3,-2,3.7,i,4.5,-3,/
CC(=O)c1c(C)n(-c2ccccc2)c2ccc(O)cc12,/,/,/,-7,15,/,/,/,-4,20
C/C(N)=C(/C#N)C(=O)COC(=O)CNS(=O)(=O)c1ccc(C)cc1,18,16,3.2,-8,-16,1.7,/,-0.2,-9,-13
CC(C)(C)c1ccc(OC(=O)Nc2ccc(O)c(C(=O)O)c2)cc1,-2,-9,-0.4,-2,-3,-1.6,i,0.8,7,/
CC(C)(C)c1ccc(C2CC2C(=O)N/N=C\c2ccc[nH]2)cc1 (centres undefined),-12,-19,0.1,109*,21,2.6,+,15,60*,-17
COCCNS(=O)(=O)c1ccc2c(c1)C(=O)c1cc(S(=O)(=O)NCCOC)ccc1-2,/,/,/,-2,?,?,/,/,-7,-2
CCc1ccccc1N1C(=O)C2CC=CCC2C1=O (centres undefined),/,/,/,-5,3,0.2,/,/,1,-19
Oc1nc(Nc2cccc(Cl)c2)sc1/C=C1\C=Nc2ccccc21,-14,-34,6.9,-3,-1,11,i,8.3,-5,-1
Fc1ccc(-c2[nH]ncc2CN(CC2CCC2)CC2CCCO2)c(F)c1 (centres undefined),20,5,-0.2,-13,-41,?,i,-0.5,8,1
Cc1cccc2c1-c1sc(C(=O)Nc3cccnc3)cc1CO2,-6,13,18,0,-3,?,i,-1.4,-7,-7
Cn1cccc1Cc1nnc(SCC(=O)NC2CCCC2)n1CCc1ccccc1,3,-1,1.1,1,-2,3.1,/,2.8,-2,32
CCSc1nnc(NC(=O)CSc2nnc(C)c(=O)n2N)s1,13,12,2.4,-1,4,-46,i,-0.9,-11,-2

# Marked active in RanGTP-Impb inh (from the list above):
smiles | Ecoli rRNA inh | Ecoli rRNA inh OD600 | Ecoli rRNA inh RFP | RanGTP-Impb inh | FGF22 binding | AF4-AF9 inh | ALR inh
Cc1cccn2c(=O)c3cc(C(=O)NCCN4CCOCC4)c(=N)n(CCCN4CCOCC4)c3nc12 | 7 | 7 | 0.4 | 131* | i | -2.3 | 5

# Single records (already shown). Order of screens: Ecoli rRNA inh, Ecoli rRNA inh OD600, Ecoli rRNA inh RFP, Beta cell apopt, Calb FLC, RanGTP-Impb inh, FGF22 binding, AF4-AF9 inh, T cruzi repl, ALR inh
# Profile of `O=C(O)c1cc(O)ccc1-c1ccc(O)cc1` = /, /, /, -2, 2, -0.3, /, /, 10, 98*
# Profile of `CCOc1ccc(CC(=O)NCc2cn3c(C)csc3n2)cc1` = -2, -1, 9.7, -1, -3, -3.7, i, -2.1, -3, 16
# Profile of `CCC(=O)NCCc1c[nH]c2ccccc12` = /, /, /, 0, 8, 0.6, /, /, -3, 29
# Profile of `CC(NC(=O)CCC(=O)Nc1ccccc1O)c1ccccc1` (centres undefined) = 13, 6, -0.2, /, -30, 2.3, i, 0.8, -7, 30
# Profile of `CCOC(=O)/C=C(C)\C=C\c1c[nH]c2ccccc12` = -7, 3, 2.0, -1, 0, 1.8, i, 7.4, 36, /

# An excerpt from above in order of the ALR inh value, ascending.
mol	ALR inh
O=C(O)C1CCCCC1C(=O)Nc1ccccn1 (centres undefined)	-3
Oc1nc(Nc2cccc(Cl)c2)sc1/C=C1\C=Nc2ccccc21	-1
COc1ccccc1N1CCN(C2=Nc3cccc4cccc2c34)CC1	4
